High-throughput results as filed in PubChem BioAssay.
D2 ag = activates the human D2 dopamine receptor | activation, % (concentration not given with the values) | DiscoveRx PathHunter D2 beta-arrestin, luminescence, 90 min; 100% = 57 uM dopamine signal | actives 0.084% (n = 360,000) | P14416; in the data active = activation above about 40%; inconclusive = about 15% to 40%; inactive = below about 15%; further: compound concentration not given in the record; the text of the record calls up to 30% inactive
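Agonist mode: compounds alone added to overnight-plated D2 PathHunter cells for 90 min at 37 C, with 57 uM final dopamine (EC100) defining full response. Beta-arrestin recruitment detected by chemiluminescent reagent, read after 1 h at ambient temperature.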
CtBP-E1A inh = blocks the CtBP interaction with E1A. AlphaScreen GST-E1A/His-CtBP binding, 1536-well; active compounds read low; control for the full effect not named in the record. activity change, % (no concentration beside the values). actives 0.49% (n = 340,000). AID 651724; in the data active means activity change below about -65%; inconclusive means about -30% to -65%; inactive means above about -30%; further: on the % scale 0 is the no-effect control and ±100 the full control effect
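AlphaScreen with 125 nM GST-E1A and 125 nM His-CtBP (5X stocks) in Tris pH 8.0, 300 mM NaCl, BSA, Tween 20, TCEP. Compounds preincubated 2 h at 37 deg C, then glutathione donor/nickel acceptor beads added for 1 h at 37 deg C in dark.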
Six1-Eya2 inh = blocks human Six1 binding to Eya2; AlphaScreen GST-Six1/His-Eya2 binding, biochemical; active compounds read low; control for the full effect not named in the record; AID 651725; activity change, % (no concentration beside the values); Q15475+O00167; actives 0.56% (n = 360,000); in the data active = activity change below about -65%; inconclusive = about -30% to -65%; inactive = above about -30%; further: on the % scale 0 is the no-effect control and ±100 the full control effect
Target sequence (O00167 whole entry, looked up): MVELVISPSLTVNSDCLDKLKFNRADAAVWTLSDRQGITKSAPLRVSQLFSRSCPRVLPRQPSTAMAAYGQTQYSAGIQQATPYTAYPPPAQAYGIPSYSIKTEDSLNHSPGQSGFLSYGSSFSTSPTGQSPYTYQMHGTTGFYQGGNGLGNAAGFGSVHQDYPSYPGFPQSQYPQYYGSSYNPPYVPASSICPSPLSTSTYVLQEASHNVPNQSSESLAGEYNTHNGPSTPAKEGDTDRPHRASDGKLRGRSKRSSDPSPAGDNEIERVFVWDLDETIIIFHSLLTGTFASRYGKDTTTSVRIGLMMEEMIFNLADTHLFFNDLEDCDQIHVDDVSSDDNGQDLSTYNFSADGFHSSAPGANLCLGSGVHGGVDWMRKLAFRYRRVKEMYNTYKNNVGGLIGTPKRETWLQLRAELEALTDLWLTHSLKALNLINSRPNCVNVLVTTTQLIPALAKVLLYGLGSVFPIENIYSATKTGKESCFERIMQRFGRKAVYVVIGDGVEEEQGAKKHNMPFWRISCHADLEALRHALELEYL
Target sequence (Q15475 whole entry, looked up): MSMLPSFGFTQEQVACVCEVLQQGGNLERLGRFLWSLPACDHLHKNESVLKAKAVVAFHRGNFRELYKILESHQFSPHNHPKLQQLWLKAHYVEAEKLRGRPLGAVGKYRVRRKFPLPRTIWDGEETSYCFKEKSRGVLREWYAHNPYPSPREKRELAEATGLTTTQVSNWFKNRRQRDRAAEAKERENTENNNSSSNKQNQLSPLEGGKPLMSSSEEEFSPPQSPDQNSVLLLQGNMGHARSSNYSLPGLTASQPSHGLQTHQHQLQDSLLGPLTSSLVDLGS
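GST-Six1 + His-Eya2 (5X stock: 250/500 nM); Tris pH 8.0, 300 mM NaCl, 0.05% BSA, 0.02% Tween 20; GSH donor/Ni acceptor beads; 1 h 37 °C dark; AlphaScreen readout.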
TRPML1 ag = activates the human TRPML1 channel | TRPML1-expressing cells, Ca2+ dye fluorescence, FDSS; host cell line not named in the record; reference of the full effect not given here | activation, % (concentration not given with the values) | actives 0.12% (n = 410,000) | AID 624414; in the data active = activation above about 50%; inconclusive = about 30% to 50%; inactive = below about 30%; further: 0% is about no effect; the text of the record puts the active cut at 80%
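Agonist activity was taken from a 110 s kinetic Ca2+ dye read on the FDSS after pinning compounds onto TRPML1-DL cells. The cells were seeded at 1,500/well with Tet inducer, incubated about 16 h, then dye-loaded at room temperature.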
PINK1 modulator = PINK1 expression modulation; PINK1 immunofluorescence, high-content cytometry, 24 h; Potency, µM (titrated, usually from 76.6 µM), inactives show top-dose activation (PINK1 increase), usual class: activators; actives 0.2% (n = 410,000); active = well fitted activation curve with a large enough effect; inconclusive = small, poorly fitted or top-dose-only effect; inactive = flat fitted curve, though single readings scatter; cell line not stated here;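 further: potency means the concentration at half of the fitted maximal effect; % of control where 0% means no effect; nearly all actives have a fitted effect of over 65% in size; a mitochondrial uncoupler was the plate control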
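PINK1 protein level read as immunofluorescence by microplate cytometer in a fixed, stained stable cell line after 24 h exposure to five compound concentrations, with CCCP as control.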
TRPML1 blocker = blocks the human TRPML1 channel; TRPML1-inducible cells, Ca2+ dye fluorescence, FDSS; active compounds read low; inhibition of EC80 agonist-evoked calcium signal; activity change, negative = inhibition, % (concentration not given with the values); actives 0.02% (n = 390,000); AID 624415; in the data active means activity change below about -50%; inconclusive means about -30% to -50%; inactive means above about -30%;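 further: stimulus is agonist 54-4 at its EC80 concentration; on the % scale 0 is the no-effect control and ±100 the full control effect; the text of the record puts the active cut at -80%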
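Tet-induced TRPML1-DL cells loaded with Ca8 no-wash calcium dye were read kinetically on FDSS. Compound addition was followed by EC80 agonist 54-4 (4 uM final); inhibition was read over 110 s.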
* hit, by the source's call; ? = inconclusive; · = not tested or not shown; & = joins results of further samples; [ ] = remark or other dose.

SMILES	D2 ag	CtBP-E1A inh	Six1-Eya2 inh	TRPML1 ag	PINK1 modulator	TRPML1 blocker
NC(=O)CC(NC(=O)Cc1ccc(Br)cc1)c1ccc(NCCN2CCCC2)c([N+](=O)[O-])c1 (stereo not drawn)	-3.1	1	3	0.4	0.6%	-20
CCOC(=O)C1=C(C)NC(C)=C(C(=O)OCC)C1C(=O)OC1CCOC1=O (stereo not drawn)	0.2&-1.4	5&1	-4&6	-0.4&0.7	-0.1%&-1.3%	10&3
O=C(NCc1noc2ccccc12)N1CCN(c2ccccc2)CC1	·	·	·	1.3	-0.4%	0
Cc1cc(C(=O)N(C)Cc2c(F)cccc2Cl)c2ccccc2n1	2.8	5	4	-0.1	0.4%	6
COc1ccc(OC)c(NC(=O)COC(=O)CNC(=O)c2ccc(OC)c(OC)c2)c1	-2.4	2	-1	0.1	·	-10
CCC(Oc1ccccc1)C(=O)Nc1nnc(C)s1 (stereo not drawn)	-2.4	-2	1	-0.2	0.7%	-2
CC(=O)c1c(C)[nH]c(C(=O)Nc2ccc(Cl)cc2)c1C	2.3	16	8	1.8	2.2%	-2
CC1CCN(C(=O)Cn2c(=O)oc3ccccc32)CC1	-4.7	-3	0	1.1	0.0%	-10
CSc1cccc(NC(=S)Nc2cc(C)ccc2C)c1	2.7	-5	-3	1.4	-0.7%	8
O=C(Nc1nc(-c2ccccn2)cs1)C1CC1	-1.8	-72*	?	0.0	1.6%	-18
Cc1cccc2nc(CSC(=N)N)c(Br)n12	-1.9	10	-8	-0.4	8.4%	13
CCOc1ccc(CCNC(=O)Cn2c(=O)c3cccn3c3cccnc32)cc1	2.7	6	3	-0.6	0.4%	-5
Cn1c(=O)c2c(nc(CN3CCN(CCO)CC3)n2CCc2ccccc2)n(C)c1=O	1.4	5	5	0.1	0.9%	-4
CC(=O)C1=C(O)C(=O)N(Cc2cccnc2)C1c1ccc(O)cc1 (stereo not drawn)	1.7	·	-10	2.2	0.2%	6
CCOC(=O)C1CCN(S(=O)(=O)c2cc(C(=O)OC)n(C)c2)CC1	1.9	-9	-12	-0.5	0.6%	-12
Cc1ccc(S(=O)(=O)NCCC(=O)NCCc2ccccc2)cc1	-4.0	-14	-9	1.7	0.9%	-11
CCC(C(=O)OCC(=O)N1C(C)CCCC1C)c1ccccc1 (stereo not drawn)	-0.1	11	-4	1.3	0.1%	6
C=CCn1c(SCc2ccc(Cl)cc2)nc2c1c(=O)[nH]c(=O)n2C	-1.3	-1	-11	1.2	7.0%	22
CCCCN(C(=O)CSCC(=O)Nc1ccc(C)cc1)c1c(N)n(CCCC)c(=O)[nH]c1=O	-0.5	8	-5	0.9	0.2%	-7
COc1ccc(C(=O)N(Cc2ccc(C(C)C)cc2)C2CCS(=O)(=O)C2)cc1 (stereo not drawn)	·	·	·	0.7	0.3%	-11
O=C(C1Cc2ccccc2CN1S(=O)(=O)c1cccs1)N1CCCCC1 (stereo not drawn)	-1.8	10	5	0.2	-1.8%	0
C[C@]12C(=O)N(c3ccc(C(F)(F)F)cc3)C(=O)N1[C@@H]1c3ccccc3OC[C@@H]1[C@H]2c1ccccc1	-3.1	-6	-8	-0.5	2.6%	51
Cc1cc(=O)cc(C)n1-c1ccc(Cl)c(Cl)c1	-4.8	0	-2	0.3	2.0%	9
Cc1cc(N2CCCC2)c(C)cc1C=O	1.1	2	0	-0.8	2.2%	-2
CCCCCCN1C[C@@H](n2cc(C3CC3)nn2)[C@H](O)C[C@@H]1c1ccc(OC)cc1	-1.4	-3	-3	·	-1.4%	·
CCN(CC)S(=O)(=O)c1ccc(O)c(C(=O)OCC(=O)NC23CC4CC(CC(C4)C2)C3)c1	-2.4	-3	1	-0.2	4.0%	-7
Nc1nn(-c2ccccc2)c(N)c1N=Nc1cccc(F)c1	6.6	-17	-24	5.0	4.0%	9
Cc1ccc(S(=O)(=O)NNC(=S)NC(C)(C)C)cc1	-7.7	4	4	-0.3	-1.5%	2
Cn1ccnc1Sc1cc(Cl)ccc1[N+](=O)[O-]	1.3	17	4	-1.0	-1.5%	-7
COCCn1c(CN2CCc3ccccc3C2)nc2c1c(=O)n(C)c(=O)n2C	-1.9	3	-5	0.6	-1.0%	12
O=Cc1ccc(N2Cc3ccccc3C2)cc1	0.2	2	-4	-0.7	0.4%	3
CCN(CC)c1nc(N)c([N+](=O)[O-])c(NCCO)n1	-3.4	-1	-1	-0.6	0.9%	40
COc1cc(/C=N/NC(=O)c2ccncc2)ccc1OCc1cnc(Cl)s1	-0.1	0	-2	0.9	-1.0%	-7
CCCCCCCC(=O)NC1=NC(=O)C(C)(C)S1	-2.0	·	-2	0.4	0.3%	10
CC1CCN(C(=O)C(C)NCc2ccc(F)cc2)CC1 (stereo not drawn)	-2.3	12	-4	-0.4	-0.2%	7
O=C(Nc1cccc(C(=O)O)c1)/C(=C/c1cccc([N+](=O)[O-])c1)NC(=O)c1cccc(Br)c1	-5.5	0	8	1.0	-0.8%	-28
C[C@@H]1COC(=O)[C@H](CC(=O)OC(C)(C)C)C/C=C\C[C@@H](CC(=O)N(CCO)Cc2ccccc2)C(=O)N1	-4.1	-25	8	-0.5	-0.6%	3
COc1ccc2[nH]cc(C(=O)CN3CCC(C)CC3)c2c1	-3.0	-9	-8	-0.4	3.9%[38.3 µM]	-2
C[C@H](NC(=O)c1nc[nH]c1C(=O)NCC(=O)OC(C)(C)C)c1ccccc1	1.4	-3	-6	0.7	0.4%	-10
O=C(CSc1ccccn1)NC1CCCc2c1cnn2-c1ccccc1F (stereo not drawn)	-1.9	-10	-6	-0.2	0.7%	-2
Cc1cc(=O)oc(C)c1C(=O)NCc1ccccc1	-2.2	4	0	0.6	-0.9%	4
COc1ccc(NC(=O)Cn2c(=O)oc3cc(S(=O)(=O)N4CCCC4)ccc32)cc1OC	·	·	·	-0.2	-0.3%	-29
Cn1c(=O)c2c(ncn2CC(=O)OCC(=O)NCc2ccc(Cl)cc2)n(C)c1=O	-3.7	0	4	-1.0	-0.7%	-9
COc1ccc(CNC(=O)C/C(C)=N/NC(=O)c2ccc([N+](=O)[O-])cc2Cl)cc1	-1.5	-3	-2	1.9	2.2%	4
CCN(Cc1ccccc1)S(=O)(=O)c1ccc(C(=O)Nc2nnc(C)o2)cc1	-1.4	-30	-20	1.3	0.4%	31

Only TRPML1 blocker, for 3 of the compounds above:
| SMILES | TRPML1 blocker |
| --- | --- |
| CCCCCCCC(=O)NC1=NC(=O)C(C)(C)S1 | 10 |
| CC1CCN(C(=O)C(C)NCc2ccc(F)cc2)CC1 (stereo not drawn) | 7 |
| O=C(Nc1cccc(C(=O)O)c1)/C(=C/c1cccc([N+](=O)[O-])c1)NC(=O)c1cccc(Br)c1 | -28 |

Some of the entries above, set out differently:
SMILES | D2 ag | CtBP-E1A inh | Six1-Eya2 inh | TRPML1 ag | PINK1 modulator | TRPML1 blocker
NC(=O)CC(NC(=O)Cc1ccc(Br)cc1)c1ccc(NCCN2CCCC2)c([N+](=O)[O-])c1 (stereo not drawn) | -3.1 | 1 | 3 | 0.4 | 0.6% | -20
CCOC(=O)C1=C(C)NC(C)=C(C(=O)OCC)C1C(=O)OC1CCOC1=O (stereo not drawn) | 0.2&-1.4 | 5&1 | -4&6 | -0.4&0.7 | -0.1%&-1.3% | 10&3
O=C(NCc1noc2ccccc12)N1CCN(c2ccccc2)CC1 | · | · | · | 1.3 | -0.4% | 0
Cc1cc(C(=O)N(C)Cc2c(F)cccc2Cl)c2ccccc2n1 | 2.8 | 5 | 4 | -0.1 | 0.4% | 6
COc1ccc(OC)c(NC(=O)COC(=O)CNC(=O)c2ccc(OC)c(OC)c2)c1 | -2.4 | 2 | -1 | 0.1 | · | -10
CCC(Oc1ccccc1)C(=O)Nc1nnc(C)s1 (stereo not drawn) | -2.4 | -2 | 1 | -0.2 | 0.7% | -2
CC(=O)c1c(C)[nH]c(C(=O)Nc2ccc(Cl)cc2)c1C | 2.3 | 16 | 8 | 1.8 | 2.2% | -2
CC1CCN(C(=O)Cn2c(=O)oc3ccccc32)CC1 | -4.7 | -3 | 0 | 1.1 | 0.0% | -10
CSc1cccc(NC(=S)Nc2cc(C)ccc2C)c1 | 2.7 | -5 | -3 | 1.4 | -0.7% | 8
O=C(Nc1nc(-c2ccccn2)cs1)C1CC1 | -1.8 | -72* | ? | 0.0 | 1.6% | -18
Cc1cccc2nc(CSC(=N)N)c(Br)n12 | -1.9 | 10 | -8 | -0.4 | 8.4% | 13
CCOc1ccc(CCNC(=O)Cn2c(=O)c3cccn3c3cccnc32)cc1 | 2.7 | 6 | 3 | -0.6 | 0.4% | -5
Cn1c(=O)c2c(nc(CN3CCN(CCO)CC3)n2CCc2ccccc2)n(C)c1=O | 1.4 | 5 | 5 | 0.1 | 0.9% | -4
CC(=O)C1=C(O)C(=O)N(Cc2cccnc2)C1c1ccc(O)cc1 (stereo not drawn) | 1.7 | · | -10 | 2.2 | 0.2% | 6
CCOC(=O)C1CCN(S(=O)(=O)c2cc(C(=O)OC)n(C)c2)CC1 | 1.9 | -9 | -12 | -0.5 | 0.6% | -12
Cc1ccc(S(=O)(=O)NCCC(=O)NCCc2ccccc2)cc1 | -4.0 | -14 | -9 | 1.7 | 0.9% | -11

The results go on:
SMILES	D2 ag	CtBP-E1A inh	Six1-Eya2 inh	TRPML1 ag	PINK1 modulator	TRPML1 blocker
O=c1cc(N2CCN(c3ccccc3)CC2)[nH]c(=O)n1Cc1ccc(F)cc1	-1.3	-2	-3	-0.4	12%	10
COc1cc(OC)c(NC(=O)c2ccc3c(c2)N(Cc2ccc(C)cc2)CCS3)cc1Cl	·	·	·	0.0	1.5%	35
C/C(=N\N1CCN(C)CC1)c1ccc(OC(F)F)cc1	-1.8	6	1	1.1	-1.4%	8
COc1cccc(O[C@@H]2O[C@@H]3COC(C)(C)O[C@H]3[C@H](O)[C@H]2NC(C)=O)c1	-2.4	2	8	-0.6	0.2%	-12
COc1ccc(CNC(=O)C2CCN(c3nnc(-n4cccc4CNc4ccc(C)cc4)s3)CC2)c(OC)c1	·	·	·	1.2	-0.8%	-8
Cc1cccc(-n2nc(C)cc2N)c1	-3.2	-8	2	-0.3	-6.2%[38.3 µM]	-12
O=C(COC(=O)CNC(=O)c1ccc(Br)cc1)NCCC1=CCCCC1	-8.4	1	5	0.6	3.9%	-9
CCn1nc(NS(=O)(=O)c2ccccc2)c2cc3cccc(C)c3nc21	-5.4	-5	-9	-0.8	-26%[38.3 µM]	-8
CCc1ccc(OCC(=O)NNC(=O)CNC(=O)c2ccc(Br)o2)cc1	-2.5	-4	0	0.0	-1.9%	-2
CCc1ccc(/C=N/NC(=O)C(=O)NCCCN2CCOCC2)cc1	-3.7	0	4	-0.8	0.8%	6
CCOC(=O)C1=C(C)N=c2s/c(=C\c3cccc(OCC(=O)O)c3)c(=O)n2C1c1ccccc1 (stereo not drawn)	-1.9	-5	-9	-1.0	-0.3%	-1
Cc1ccccc1-c1nnc(-c2ccccc2)o1	-6.4	12	22	1.3	1.9%	-2
Fc1ccc(Nc2cccc3nccnc23)cc1	-3.3	-19	-18	4.7	1.5%	1
